Ecoli rRNA inh: reduced GFP signal of wild-type E. coli, primary screen, bacterial rRNA inhibitor project, GFP/RFP fluorescence, OD600, single point; GFP signal change (wild-type ribosome), % (no concentration beside the values); E. coli WT GFP vs humanized-ribosome RFP mutants, 24 h; active compounds read low; DMSO median 0, no signal -100; 350,000 compounds, 1.6% hits;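 active = significant combined selectivity score with lowered wild-type GFP, culture density cut under 30%, mutant RFP and density less affected; inactive = any of these conditions unmet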; also: one replicate is shown; some compounds called inactive have numbers as strong as hits
FGF22 binding: binders of human FGF22 protein, primary screen, FGF22 synaptogenesis inhibitor project, biophysical, thermal shift, single point | calls only at 9.99 µM | recombinant FGF22 thermal shift, SYPRO orange fluorescence; percent of sucrose octasulfate shift, DMSO zero | Fibroblast growth factor 22 (Homo sapiens), Q9HCT0 | 340,000 compounds, 1.5% hits;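 active = melting point raised past a set limit in the mean and every replicate; inconclusive = no clear call; three in four hits are not shown here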
Target sequence (Q9HCT0 whole entry, looked up): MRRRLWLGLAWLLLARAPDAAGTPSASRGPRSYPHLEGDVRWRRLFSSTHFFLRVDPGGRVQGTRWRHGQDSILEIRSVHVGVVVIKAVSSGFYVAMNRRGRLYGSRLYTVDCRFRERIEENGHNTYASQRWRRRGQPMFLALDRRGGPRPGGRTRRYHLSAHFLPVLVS
HNF4A DNA FP: change in binding of human HNF4A to DNA, primary screen, biochemical, fluorescence polarization, FITC-DNA; Hepatocyte nuclear factor 4-alpha (Homo sapiens), P41235; 1 h; 360,000 compounds, 0.3% hits; activity change, % at 10 µM; in the data active = activity change above about 30%, passing the limit was not always enough;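 also: controls were the assay level and a saturating level of protein; the project sought stronger binding though the title names inhibitors; some compounds called inactive have numbers as strong as hits; positive values seem to mean higher polarization but the record does not say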
MLL AF4-AF9 inh: inhibitors of AF4 peptide binding to AF9, primary screen, biochemical, AlphaScreen, biotin-AF4 peptide, FLAG-AF9, single point; inhibition, % at 10 µM; Protein AF-9 (Homo sapiens), P42568; 350,000 compounds, 0.47% hits;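 active = every replicate reaching a set inhibition limit, whatever the replicate mean, cut at about 25% in these data; inconclusive = mean inhibition reaches that limit but some replicates miss it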;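 also: 0% = plate neutral control median and 100% = total signal loss; the record names both 10 and 1 µM as test concentration; the first replicate is given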
Target sequence (P42568 whole entry, looked up): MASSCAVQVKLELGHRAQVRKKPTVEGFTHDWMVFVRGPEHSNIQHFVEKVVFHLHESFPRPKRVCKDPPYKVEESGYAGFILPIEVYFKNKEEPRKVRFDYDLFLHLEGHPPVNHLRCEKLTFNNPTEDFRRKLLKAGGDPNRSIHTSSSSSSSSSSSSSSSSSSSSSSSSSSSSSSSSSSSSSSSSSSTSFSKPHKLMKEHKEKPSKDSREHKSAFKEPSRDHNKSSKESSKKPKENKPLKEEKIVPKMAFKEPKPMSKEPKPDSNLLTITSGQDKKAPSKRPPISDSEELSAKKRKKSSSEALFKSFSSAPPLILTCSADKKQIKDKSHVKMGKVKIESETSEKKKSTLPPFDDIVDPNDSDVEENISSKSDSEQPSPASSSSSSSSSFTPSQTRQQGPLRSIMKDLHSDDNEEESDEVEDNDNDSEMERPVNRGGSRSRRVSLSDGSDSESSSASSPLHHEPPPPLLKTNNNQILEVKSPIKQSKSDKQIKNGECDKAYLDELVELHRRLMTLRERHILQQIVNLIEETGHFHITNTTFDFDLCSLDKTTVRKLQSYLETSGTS
E coli growth: E. coli growth inhibition, primary screen, OD600; Escherichia coli growth, 23 h; active compounds read low; AID 1053175, 2014; OD600 absorbance (concentration not given with the values); 330,000 compounds, 0.21% hits;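 active = OD600 absorbance below the run mean of sample wells minus 3.6 SD, in any replicate, cut at about 0.56 in these data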;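 also: stock transfer was 300 nL into about 60 µL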
Vif A3G: inhibitors of Vif binding to APOBEC3G peptide, primary screen, biochemical, TR-FRET, GST-Vif 1-94, biotin-A3G peptide, dose response retest (AID 1117319) | Virion infectivity factor (Human immunodeficiency virus type 1 group M subtype B (isolate … | TR-FRET GST-Vif / biotin-A3G peptide binding; higher % means a stronger effect; test concentration not given here; strong numbers were not always called active | one-dose inhibition, %; IC50 in µM for titrated hits | 260,000 compounds, 0.57% hits;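 active = above the screen mean plus three standard deviations and confirmed in dose response; inconclusive = results disagree or hit not tested in dose response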;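 also: Vif residues 1-94 fused to GST binding biotinylated APOBEC3G peptide 110-148; 0% = full assay without inhibitor and 100% = GST in place of GST-Vif; retest series ran down from 100 µM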
ALR H2O2 inh: inhibitors of human ALR sulfhydryl oxidase, primary screen, biochemical, H2O2 detection, HRP-luminol luminescence, single point. 290,000 compounds, 3.8% hits. inhibition, % (no concentration beside the values). purified ALR, DTT oxidation. AID 485317, 2010;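 active = mean and each replicate at 75% or more; inconclusive = only one of the two met; inactive = neither met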;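 also: stock transfer was 7.5 nL into about 7.5 µL; 0% = neutral wells and 100% = wells with inactivated enzyme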
Target sequence (P55789 whole entry, looked up): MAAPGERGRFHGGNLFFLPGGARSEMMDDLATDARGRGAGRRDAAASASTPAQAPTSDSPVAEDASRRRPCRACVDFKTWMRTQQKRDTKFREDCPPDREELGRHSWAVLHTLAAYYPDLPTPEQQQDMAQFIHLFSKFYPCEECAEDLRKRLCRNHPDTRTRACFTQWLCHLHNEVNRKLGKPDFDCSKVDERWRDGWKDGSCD
Ecoli rRNA inh OD600: recorded beside Ecoli rRNA inh, whose call it bears; OD600 change, %; measured here: OD600 growth;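 optical density of the mix in the first replicate; 0 = DMSO median and -100 = no signal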
Ecoli rRNA inh RFP: further read-out of Ecoli rRNA inh, marked with its call; RFP signal change, %; measured here: RFP humanized mutant strains;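 first replicate; 0 = DMSO median and -100 = no signal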
Active calls of the source: *; i = inactive; u = inconclusive; x = no result given.

mol,HNF4A DNA FP,ALR H2O2 inh,Ecoli rRNA inh OD600,MLL AF4-AF9 inh,Ecoli rRNA inh,FGF22 binding,E coli growth,Vif A3G,Ecoli rRNA inh RFP
CC(C)CNC(=O)CC(NCC(C)C)C(=O)O (centres undefined),x,1,x,x,x,x,0.7,2%,x
COc1ccc(-c2nc(-c3cccnc3)no2)cc1,3.0,-1,7,2.9,7,i,0.61,-11%,-0.2
COc1cccc(C2CC(c3ccccc3Cl)Nc3ncnn32)c1 (centres undefined),-0.8,x,x,x,x,x,0.67,-10%,x
COc1cc(-c2csc(CCn3nc(C)cc3C)n2)cc(OC)c1OC,4.6,99*,-11,-1.7,-13,i,0.71,5%,-2.1
COc1cccc(NS(=O)(=O)c2ccc3c(c2)NC(=O)C(C)S3)c1 (centres undefined),-0.1,15,-28,1.8,-7,i,0.62,1%,1.5
CCC(c1nnc(SCC(=O)Nc2nnc(-c3ccccc3)o2)n1Cc1ccccc1)N(C)C (centres undefined),-1.6,-1,x,x,x,x,0.66,-2%,x
C[C@@H]1CN([C@@H](C)CO)C(=O)Cc2cc(NS(=O)(=O)c3cn(C)cn3)ccc2O[C@@H]1CN(C)C(=O)Nc1cccc2ccccc12,x,x,-3,-4.3,4,i,x,x,-0.2
COc1ccc(-c2cc(C(F)(F)F)nc(SCC(=O)N3CCOCC3)n2)cc1OC,0.7,-4,x,x,x,x,0.8,-17%,x
COCC(=O)N(C)C[C@H]1Oc2cc(C#C[C@@H](C)O)ccc2S(=O)(=O)N([C@H](C)CO)C[C@H]1C,x,x,7,-0.4,1,i,x,x,-2.1
C[C@@H]1CN([C@H](C)CO)C(=O)c2c(c3ccccc3n2C)-c2ccccc2CO[C@H]1CN(C)Cc1ccc2c(c1)OCO2,x,x,-38,7.6,-5,i,x,x,18
c1ccc(N2CCN(Cc3ccnc4ccccc34)CC2)cc1,2.7,8,x,x,x,x,0.64,12%,x
Cc1cccc(C)c1OCC(=O)Nc1cccc(S(=O)(=O)N2CCCC2)c1,0.3,2,1,3.8,1,i,0.7,6%,1.0
CCc1ccc(-c2cc(C)no2)cc1S(=O)(=O)Nc1ccccn1,-0.1,-4,6,1.8,4,i,0.67,x,-2.9
C[C@H]1CN([C@@H](C)CO)C(=O)Cc2cc(NC(=O)NC3CCCCC3)ccc2O[C@H]1CN(C)Cc1ccc(Oc2ccccc2)cc1,x,x,2,-0.7,-7,i,x,x,-0.3
O=C(NCc1ccccc1)N1CCC(CO)(CCc2ccccc2)CC1,-0.2,-4,-19,-0.2,-22,x,0.75,x,0.1
COc1ccc(NC(=O)N(C)C[C@@H]2Oc3cc(-c4ccncc4)ccc3S(=O)(=O)N([C@H](C)CO)C[C@H]2C)cc1,x,x,-1,-1.6,1,i,x,x,-4.2
Oc1ccc(/C=C/c2nc(-c3ccccc3O)n(-c3ccccc3)n2)cc1,-3.6,65,x,x,x,x,0.68,-7%,x
O=C(CCCOc1ccccc1)Nc1ccc(S(=O)(=O)Nc2ccccn2)cc1,3.0,-13,x,x,x,x,0.66,x,x
CCn1c(CCNC(=O)c2cccs2)nnc1SCC(=O)NC1CCCCC1,-0.8,-1,x,x,x,x,0.74,1%,x
C[C@@H]1CN([C@H](C)CO)C(=O)c2cc(NC(=O)Cc3ccccc3)ccc2O[C@@H](C)CCCCO[C@@H]1CN(C)S(=O)(=O)c1ccccc1,x,x,-5,-1.8,0,i,x,x,0.9
COc1ccc(NS(=O)(=O)c2cc(C(=O)O)ccc2C)cc1,1.3,-6,10,0.2,12,i,0.64,0%,-1.8
C[C@@H](O)C#Cc1ccc2c(c1)O[C@@H](CN(C)C(=O)c1ccncc1)[C@@H](C)CN([C@@H](C)CO)S2(=O)=O,x,x,7,-0.6,3,i,x,x,0.5
C[C@@H]1CN([C@H](C)CO)C(=O)c2cc(NC(=O)CCCCCC(=O)Nc3ccccc3N)ccc2O[C@@H]1CN(C)C(=O)Nc1ccc(F)cc1,x,x,9,-0.4,0,i,x,x,-0.4
O=C(c1ccc(F)cc1)c1ccc(CN2C(=O)c3ccccc3C2=O)o1,1.4,1,-14,-3.0,-14,i,0.71,2%,3.8
CC(C)c1ccc(C(C(=O)NC2CCCCC2)N(C(=O)c2csnn2)C2CC2)cc1 (centres undefined),-0.1,0,11,-1.9,7,i,0.71,x,0.8
O=C1/C(=C/c2cccs2)N=C(c2cccs2)N1Nc1ccccc1,-2.4,-3,x,x,x,x,x,7%,x
OC(c1ccc(Cl)c(F)c1)c1ncc(-c2ccccc2F)[nH]1 (centres undefined),1.7,x,-29,6.7,-6,i,x,x,-3.5
N#CCOC(=O)c1c2c(nc3ccccc13)CCC2,0.7,-7,-24,-0.2,-14,x,0.67,16%,-2.0
Cc1noc(C)c1S(=O)(=O)N(C)C[C@@H]1Oc2ccc(NS(=O)(=O)c3cccs3)cc2CC(=O)N([C@H](C)CO)C[C@H]1C,x,x,-1,15,2,i,x,x,-1.2
C[C@@H]1CN(C(=O)c2nc3ccc(Cl)cn3c2CN2CCc3sccc3C2)C[C@H](C)O1,0.0,-31,2,1.7,8,i,0.69,0%,1.6
CCOC(=O)c1cc2c(nc1N)CC(C)(C)OC2,4.0,21,x,x,x,x,0.72,13%,x
CCCC(=O)Nc1ccc2c(c1)OC[C@H](C)N(C(C)=O)C[C@H](C)[C@H](OC)CN(C)C2=O,x,x,0,0.2,-1,i,x,x,1.7
CCC(C)NC(=O)Cn1cccc1C(=O)c1ccccc1 (centres undefined),-1.7,-12,x,x,x,x,0.73,1%,x
Cc1ccc2nc(SCC(=O)N3CCN(C(=O)c4ccco4)CC3)[nH]c2c1,1.0,-4,x,x,x,x,0.63,-1%,x
COc1ccccc1-c1nnc(NC(=O)c2ccc(S(=O)(=O)N(C)C)cc2)o1,1.5,-11,x,x,x,x,0.72,11%,x
O=C(COc1ccc([N+](=O)[O-])cc1)N(Cc1cccs1)C1CCS(=O)(=O)C1 (centres undefined),3.0,-4,6,4.9,1,i,0.66,7%,2.0
CCOc1cccc(-c2nnc3sc(C4CCCCC4)nn23)c1,-1.7,-19,x,x,x,x,0.67,-1%,x
O=C(CC1C(=O)NCCN1CC1CCCCC1)NCc1ccc(F)cc1F (centres undefined),-1.6,-28,-9.1*,1.6,-20*,i,0.66,x,1.5*
COc1ccc(NC(=O)N2C[C@@H](O)COC[C@H]3O[C@H](CC(=O)N4CCOCC4)CC[C@@H]32)cc1,x,x,7,-2.5,2,i,x,x,1.3
O=C(C[C@H]1C[C@@H]2c3cc(NC(=O)Cc4ccncc4)ccc3O[C@@H]2[C@H](CO)O1)NCc1cccnc1,x,x,2,-3.2,1,i,x,x,-0.5

Compounds shown so far containing a furan ring, fused or not (2):
mol,HNF4A DNA FP,ALR H2O2 inh,Ecoli rRNA inh OD600,MLL AF4-AF9 inh,Ecoli rRNA inh,FGF22 binding,E coli growth,Vif A3G,Ecoli rRNA inh RFP
O=C(c1ccc(F)cc1)c1ccc(CN2C(=O)c3ccccc3C2=O)o1,1.4,1,-14,-3.0,-14,i,0.71,2%,3.8
Cc1ccc2nc(SCC(=O)N3CCN(C(=O)c4ccco4)CC3)[nH]c2c1,1.0,-4,x,x,x,x,0.63,-1%,x

Going on with the list.
mol,HNF4A DNA FP,ALR H2O2 inh,Ecoli rRNA inh OD600,MLL AF4-AF9 inh,Ecoli rRNA inh,FGF22 binding,E coli growth,Vif A3G,Ecoli rRNA inh RFP
Cn1cc(CN2CCC(n3nccc3NC(=O)CCCc3ccccc3)CC2)cn1,1.4,2,12,-0.2,7,i,0.7,x,1.0
CC(C)(C)C(=O)Nc1cc2c3c(c1)CCN3C(=O)CC2,-0.7,x,10,-1.1,16,i,0.7,-2%,4.5
C[C@@H](NC(=O)C[C@@H]1C[C@@H]2c3cc(NC(=O)NC4CCCC4)ccc3O[C@@H]2[C@@H](CO)O1)c1ccccc1,x,x,-1,-1.1,2,i,x,x,-1.4
CC1(C)CC(CNCCC(c2ccc(F)cc2)c2ccco2)CCO1 (centres undefined),-6.5,-5,4,-1.5,13,i,0.71,25%,-4.7
O=C(Nn1c(O)c(C=C2N=c3ccccc3=N2)sc1=S)c1cccc(Cl)c1,3.0,10,x,x,x,x,0.75,5%,x
Cc1cc(NS(=O)(=O)c2ccc(NC(=O)CSc3nc4sc(C(=O)O)c(C)c4c(=O)[nH]3)cc2)no1,3.8,-7,10,-5.1,17,i,0.68,10%,0.9
CC(=O)N1CCC(C(=O)NC2CC(C)(C)Cc3c2cnn3-c2ccc(F)cc2)CC1 (centres undefined),0.8,-1,2,-0.1,3,i,0.66,-4%,0.4
N#CC(C(=O)C12CC3CC(CC(C3)C1)C2)c1nc2ccccc2[nH]1 (centres undefined),2.4,43,x,x,x,x,0.72,2%,x
CCOc1ccccc1C(=O)NCC(=O)OCC(=O)c1ccc2c(c1)OCCO2,-1.4,-4,x,x,x,x,0.7,-19%,x
COc1cc(C)c(NC(=O)COc2cccc3c2OC(C)(C)C3)cc1OC,-1.9,x,x,x,x,x,0.71,-2%,x
Cn1c(SCC(=O)NC(C)(C)C)nnc1-c1cccc(NC(=O)c2ccccc2F)c1,-1.1,-2,x,x,x,x,0.69,u,x
COc1ccc(NC(=O)COc2ccc(-n3cnnn3)cc2)cc1OC,-1.3,x,19,3.0,2,i,0.72,7%,-2.4
COc1ccc2c3c([nH]c2c1)[C@H](CO)N(S(C)(=O)=O)CC31CCN(CC2CC2)CC1,x,x,7,0.0,2,i,x,x,-1.6
O=C(NCc1cccs1)c1ccccc1,0.6,-15,x,x,x,x,0.72,23%,x
COc1ccc(/C=C/C(=O)NC(=S)NCc2ccccc2)cc1OC,-0.5,0,11,-3.5,12,i,0.62,-10%,3.1
COc1ccc(CCCNC(=O)CC#N)cc1OC,0.1,-24,x,x,x,x,0.75,-3%,x
O=C(Nc1ccccc1F)c1ccc(-n2cncn2)nc1,-1.7,-37,x,x,x,x,0.76,5%,x
COc1ccc(S(=O)(=O)Nc2ccc(S(=O)(=O)Nc3nccs3)cc2)cc1,-2.6,x,-5,-3.0,2,i,0.7,x,-1.9
CN1C(C(=O)NCc2cccc(Br)c2)CC2Cn3c(nc4cc(Cl)c(Cl)cc43)C21 (centres undefined),2.3,x,-29,-1.4,-26,i,0.68,3%,4.0
C[C@@H]1CN([C@@H](C)CO)C(=O)c2cc(NC(=O)Nc3cccc4ccccc34)ccc2O[C@@H](C)CCCCO[C@@H]1CN(C)S(=O)(=O)c1cn(C)cn1,x,x,-4,-1.5,-4,i,x,x,-5.0
CCOc1ccc(C(c2nnnn2C(C)(C)C)N2CCN(C(=O)c3ccco3)CC2)cc1 (centres undefined),4.5,-6,-4,0.6,1,i,0.71,x,-2.4
CC1SCC(=O)N(CC(=O)NCc2ccccc2)C1=O (centres undefined),0.5,-11,16,-1.5,16,i,0.68,x,3.6

Only part of the results is shown; count on the stated rates, not on these rows.
